KCNQ2 inh: KCNQ2 channel blockers in CHO-K1 cells – cell-based, FluxOR thallium flux, B-score, primary screen (AID 2156); actives 1.1% (n = 310,000); 20 min; stronger effect = lower value; only compounds with negative scores are shown here; some inactives read as strong as hits; O88943; B-score at 10 µM;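 active = fluorescence ratio B-score at most minus 3 library SDs, with starting brightness B-score within 2 library SDs, cut at about -5.5 in these data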
Target sequence (O88943 whole entry, looked up): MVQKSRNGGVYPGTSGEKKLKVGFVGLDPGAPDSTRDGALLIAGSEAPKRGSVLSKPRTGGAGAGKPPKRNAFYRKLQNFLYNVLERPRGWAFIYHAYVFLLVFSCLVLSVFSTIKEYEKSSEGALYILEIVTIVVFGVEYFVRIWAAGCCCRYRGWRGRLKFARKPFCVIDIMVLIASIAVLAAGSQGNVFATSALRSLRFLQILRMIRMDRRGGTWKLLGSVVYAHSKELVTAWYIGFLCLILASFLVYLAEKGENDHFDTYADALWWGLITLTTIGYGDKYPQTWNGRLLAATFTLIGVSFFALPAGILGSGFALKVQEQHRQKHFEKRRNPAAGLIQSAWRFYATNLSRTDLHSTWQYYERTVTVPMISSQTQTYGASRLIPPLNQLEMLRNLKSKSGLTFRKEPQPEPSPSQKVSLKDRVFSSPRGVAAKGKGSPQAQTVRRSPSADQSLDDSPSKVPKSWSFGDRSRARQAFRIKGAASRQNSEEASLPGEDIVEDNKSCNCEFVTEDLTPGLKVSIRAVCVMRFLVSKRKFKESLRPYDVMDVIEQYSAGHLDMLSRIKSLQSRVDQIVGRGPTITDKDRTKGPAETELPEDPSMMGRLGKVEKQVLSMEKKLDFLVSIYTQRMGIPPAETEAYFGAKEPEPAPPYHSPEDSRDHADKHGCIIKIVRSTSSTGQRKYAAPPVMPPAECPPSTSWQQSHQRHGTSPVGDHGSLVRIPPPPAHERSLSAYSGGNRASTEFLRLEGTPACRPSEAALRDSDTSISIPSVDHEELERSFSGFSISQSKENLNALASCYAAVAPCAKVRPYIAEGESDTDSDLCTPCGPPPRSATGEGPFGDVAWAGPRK
KCNQ2 inh baseline: recorded beside KCNQ2 inh, whose call it bears; B-score; measured here: initial fluorescence intensity artifact check;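 brightness before thallium and not channel activity; 0 = typical well and far values either way flag optical interference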
Active calls of the source: *. An excerpt, so the mix of outcomes need not match the whole.

Screening C=CCN1C(=O)/C(=C/c2ccc(O)cc2)S/C1=N/c1nccs1 returned KCNQ2 inh inactive and KCNQ2 inh baseline -2.17.
`CCOC(=O)Cn1c(=O)oc2cc(S(=O)(=O)Nc3ccc(N(CC)CC)cc3C)ccc21` gave KCNQ2 inh inactive and KCNQ2 inh baseline 1.63.
CC#CCNCc1ccccc1 was read as KCNQ2 inh inactive and KCNQ2 inh baseline 0.16.
For CN(C)c1ccc(/C=N/NC(=O)c2ccccn2)cc1 the results were KCNQ2 inh inactive and KCNQ2 inh baseline 0.53.
Screening O=C(CC1NC(=O)NC1=O)Nc1ccccc1 (configuration not stated) returned KCNQ2 inh inactive and KCNQ2 inh baseline -0.89.
`O=C1CN(C(=O)CCN2CCOCC2)C(c2ccccc2)c2cc(Br)ccc2N1` (configuration not stated) gave KCNQ2 inh inactive and KCNQ2 inh baseline 0.71.
`O=C(Cc1noc2ccccc12)Nc1ccc(Cl)cc1` gave KCNQ2 inh inactive and KCNQ2 inh baseline 0.04.
O=C(CN1CCN(C/C=C/c2ccccc2)CC1)NCc1ccc(Cl)cc1 was read as KCNQ2 inh inactive and KCNQ2 inh baseline 0.36.
c1ccc(-c2cccc(-c3ccccc3)n2)cc1 was read as KCNQ2 inh inactive and KCNQ2 inh baseline 0.53.
CCOC(=O)CSc1nc(-c2ccccc2)ns1 was read as KCNQ2 inh inactive and KCNQ2 inh baseline -1.89.
For CCOC(=O)c1c(S(=O)(=O)NCC(=O)Nc2ccc(OC)cc2)c(C)n(C)c1C the results were KCNQ2 inh inactive and KCNQ2 inh baseline 0.28.
Screening CCN=C(NCC)SC1CC(=O)N(c2cccc(OC)c2)C1=O (configuration not stated) returned KCNQ2 inh -5.8* and KCNQ2 inh baseline 0.01*.
Screening OC(COc1ccc(Cl)cc1)CN1CCN(c2ccccc2)CC1 (configuration not stated) returned KCNQ2 inh inactive and KCNQ2 inh baseline -0.01.
`Cc1ccc(-n2c(-c3ccccc3)c[nH]c2=S)cc1` gave KCNQ2 inh inactive and KCNQ2 inh baseline 0.05.
For Cc1cc(C)cc(C(=O)NCC(=O)OCC(=O)NCc2ccco2)c1 the results were KCNQ2 inh inactive and KCNQ2 inh baseline 0.03.
O=C(COc1ccc(Br)cc1CO)Nc1ccc(F)cc1 was read as KCNQ2 inh inactive and KCNQ2 inh baseline -0.67.
`COc1cc2c(cc1NC(=O)CSc1nc3cc(Cl)ccc3s1)oc1ccccc12` gave KCNQ2 inh inactive and KCNQ2 inh baseline 0.02.
CS(=O)(=O)c1cccc(C(=O)Nc2ccc3c(c2)OCCCO3)c1 was read as KCNQ2 inh inactive and KCNQ2 inh baseline -1.09.
CN(C)CCCn1c(SCC(=O)N2CC(=O)Nc3ccccc32)nc2ccccc2c1=O was read as KCNQ2 inh inactive and KCNQ2 inh baseline -0.54.
`CCOCCCNC(=O)C1(O)c2ccccc2NC(=O)N1c1ccc(Cl)c(Cl)c1` (configuration not stated) gave KCNQ2 inh inactive and KCNQ2 inh baseline -0.64.

No new results follow: 2 of the compounds above.
CN(C)CCCn1c(SCC(=O)N2CC(=O)Nc3ccccc32)nc2ccccc2c1=O was read as KCNQ2 inh inactive and KCNQ2 inh baseline -0.54.
`CCOCCCNC(=O)C1(O)c2ccccc2NC(=O)N1c1ccc(Cl)c(Cl)c1` (configuration not stated) gave KCNQ2 inh inactive and KCNQ2 inh baseline -0.64.

Following part.
`CSc1nc2ccc(S(=O)(=O)N3CCOCC3)cc2s1` gave KCNQ2 inh inactive and KCNQ2 inh baseline 0.61.
CC(=O)N[C@@H](Cc1c[nH]c2ccccc12)C(=O)NC1CCCc2ccccc21 (some centres not stated) was read as KCNQ2 inh inactive and KCNQ2 inh baseline 1.61.
Screening COc1ccc(C(=O)Nc2ccc3c(c2)CCCN3C(=O)c2cccs2)c(OC)c1 returned KCNQ2 inh inactive and KCNQ2 inh baseline -0.39.
Screening Cc1ccc(-c2noc(-c3ccccc3C(=O)N3CCCC3)n2)cc1 returned KCNQ2 inh inactive and KCNQ2 inh baseline 0.99.
COCCC1CCCCN1C(=O)c1cccc(OC2CCN(S(C)(=O)=O)CC2)c1 (configuration not stated) was read as KCNQ2 inh inactive and KCNQ2 inh baseline 0.94.
`Cc1ccc(NC(=O)Cn2nnc(C(=O)NCc3ccco3)c2N)c(C)c1` gave KCNQ2 inh inactive and KCNQ2 inh baseline -1.9.
CCOc1cc(S(=O)(=O)NCCN2CCOCC2)c(C)cc1C was read as KCNQ2 inh inactive and KCNQ2 inh baseline 0.79.
For COc1cccc(N2[C@@H](CC(C)=O)c3ccccc3S2(=O)=O)c1 the results were KCNQ2 inh inactive and KCNQ2 inh baseline -1.76.
COc1ccc(CNC(=O)c2cc3c(s2)CN(Cc2ccccc2)C3)cc1 was read as KCNQ2 inh inactive and KCNQ2 inh baseline -0.01.
O=S(=O)(Cc1ccccc1)Oc1ccccc1 was read as KCNQ2 inh inactive and KCNQ2 inh baseline -1.07.
CSCCC(NC(=O)c1ccccc1Cl)C(=O)N1CCN(c2ccccn2)CC1 (configuration not stated) was read as KCNQ2 inh inactive and KCNQ2 inh baseline -0.03.
For O=C(O)CSc1cc(NS(=O)(=O)c2ccc(Cl)cc2)c2ccccc2c1O the results were KCNQ2 inh inactive and KCNQ2 inh baseline 0.1.
For O=C(CSc1nc2ccccc2c(=O)n1Cc1ccc(C(=O)NC2CC2)cc1)NCc1ccco1 the results were KCNQ2 inh inactive and KCNQ2 inh baseline 2.18.
`COc1ccc(CC(=O)n2[nH]c(=O)cc(C)c2=O)cc1OC` gave KCNQ2 inh inactive and KCNQ2 inh baseline 0.04.
For CS(=O)(=O)N(Cc1ccc(Cl)cc1)c1ccc(C(=O)NCc2ccccn2)cc1 the results were KCNQ2 inh inactive and KCNQ2 inh baseline -1.61.
COc1ccc(CCNC(=O)C2CCCN2C(=O)Nc2cccc(C(C)=O)c2)cc1OC (configuration not stated) was read as KCNQ2 inh inactive and KCNQ2 inh baseline 0.58.
CC(=O)Nc1ccc(-c2csc(N/N=C(/C)c3ccccc3)n2)cc1 was read as KCNQ2 inh inactive and KCNQ2 inh baseline 0.02.
Screening COc1ccc(C(C)(C)NC(=O)C2CCC(=O)N(CCCN3CCCC3=O)C2)cc1 (configuration not stated) returned KCNQ2 inh inactive and KCNQ2 inh baseline 1.07.
Screening CN(C)CCCNc1ccc(-c2cc(Nc3cccc(Cl)c3)ncn2)cn1 returned KCNQ2 inh inactive and KCNQ2 inh baseline 2.51.
For CN(C)CCCN(C(=O)COc1ccc(Cl)cc1)c1nc2ccc(F)cc2s1 the results were KCNQ2 inh inactive and KCNQ2 inh baseline 0.45.
`CCCc1[nH][nH]c(=O)c1C(c1ccccc1)C(C#N)C#N` (configuration not stated) gave KCNQ2 inh inactive and KCNQ2 inh baseline 0.77.
Cc1nc2c3ccccc3nc(NNC(=O)CCC(=O)NCCN3CCN(c4ccccc4)CC3)n2n1 was read as KCNQ2 inh inactive and KCNQ2 inh baseline -2.37.
For O=C(/C=C/c1ccccc1)N/C(=C/c1ccccc1)C(=O)Nc1ccccc1O the results were KCNQ2 inh inactive and KCNQ2 inh baseline 0.77.
`Cc1cccc(N2CCN(C(=O)CCC(=O)N3CC(C)Oc4ccc(C)cc43)CC2C)c1` (configuration not stated) gave KCNQ2 inh inactive and KCNQ2 inh baseline 0.23.
Screening CCOC(=O)c1cc(C(=O)OCC)c(=O)[nH]c1C returned KCNQ2 inh inactive and KCNQ2 inh baseline -0.73.
`COC(=O)c1c(C)n(-c2ccccc2)c2ccc(O)cc12` gave KCNQ2 inh inactive and KCNQ2 inh baseline 2.98.
Screening CC(NCc1ccc(S(N)(=O)=O)cc1)C(=O)Nc1cccc(Cl)c1 (configuration not stated) returned KCNQ2 inh inactive and KCNQ2 inh baseline -1.33.
`Cc1ccc(C(=O)Nc2ccc(C(=O)N/N=C/c3ccccn3)cc2)cc1` gave KCNQ2 inh inactive and KCNQ2 inh baseline -1.38.
For S=C(NC12CC3CC(CC(C3)C1)C2)N1CCCC1 the results were KCNQ2 inh inactive and KCNQ2 inh baseline -0.21.
Screening CCC(CC)C(=O)Nc1ccc(C)cc1O returned KCNQ2 inh inactive and KCNQ2 inh baseline 0.34.
`CCOc1ccc(C2=CSC3=NCCN23)cc1[N+](=O)[O-]` gave KCNQ2 inh inactive and KCNQ2 inh baseline 0.01.
`COc1ccc(NC(=O)c2ccc3ccccc3c2)cc1NS(=O)(=O)c1ccc(F)cc1` gave KCNQ2 inh inactive and KCNQ2 inh baseline -0.2.
For O=C(Nc1cc(=O)[nH]c2ncnn12)c1ccccc1 the results were KCNQ2 inh inactive and KCNQ2 inh baseline 1.14.
CC(C)CN(C(=O)COC(=O)c1ccc(Cl)c(N)c1)c1c(N)n(Cc2ccccc2)c(=O)[nH]c1=O was read as KCNQ2 inh inactive and KCNQ2 inh baseline 1.15.
Screening COc1ccc(CCN(C(=O)c2cccc(F)c2)C2CC(=O)N(c3ccccc3)C2=O)cc1 (configuration not stated) returned KCNQ2 inh inactive and KCNQ2 inh baseline 0.01.
For COC(=O)CC1C(=O)NCCN1C(=S)NC(=O)CCc1ccccc1 (configuration not stated) the results were KCNQ2 inh inactive and KCNQ2 inh baseline -1.09.
For COc1ccc2c(c1)cc(C(=O)N[C@@H](CCSC)C(=O)N1CCC[C@H]1C(=O)O)n2C the results were KCNQ2 inh inactive and KCNQ2 inh baseline -0.11.
O=C1Cc2ccccc2C(c2ccc(Cl)cc2Cl)N1 (configuration not stated) was read as KCNQ2 inh inactive and KCNQ2 inh baseline 1.07.
Screening Cc1ccnc(NCc2cc(C)ccc2O)c1 returned KCNQ2 inh inactive and KCNQ2 inh baseline -0.34.
For Cc1ccc(/C=N/NS(=O)(=O)c2ccccc2)o1 the results were KCNQ2 inh inactive and KCNQ2 inh baseline 0.51.
Screening CN(C)c1ccc(N/C(N)=N/c2nc(C(F)(F)F)cc(C(F)(F)F)n2)cc1 returned KCNQ2 inh inactive and KCNQ2 inh baseline -0.38.
c1nc2n(n1)C1=C(CCCC1)C1(CCCCC1)N2 was read as KCNQ2 inh inactive and KCNQ2 inh baseline -0.69.
`O=C(CCCc1nc2ccccc2s1)NCc1ccccc1F` gave KCNQ2 inh inactive and KCNQ2 inh baseline 0.94.
Screening O=C(c1ccc(F)cc1)N1CCN2C(=O)c3ccccc3C12c1ccccc1 (configuration not stated) returned KCNQ2 inh inactive and KCNQ2 inh baseline -0.82.
Screening CCOCC(=O)Nc1ccc(S(=O)(=O)NCCc2ccccc2)cc1 returned KCNQ2 inh inactive and KCNQ2 inh baseline 1.23.
NS(=O)(=O)c1ccc(CCNC(=O)c2ccc(NC3=NC4CS(=O)(=O)CC4S3)cc2)cc1 (configuration not stated) was read as KCNQ2 inh inactive and KCNQ2 inh baseline 0.59.
Screening CC(=O)N1CCN(Cc2nc3ccc(Cl)cc3n2CCO)CC1 returned KCNQ2 inh inactive and KCNQ2 inh baseline 0.14.
Nn1c(SCC(=O)Nc2ccccc2)nnc1C1CCCCC1 was read as KCNQ2 inh inactive and KCNQ2 inh baseline -0.07.
For N#Cc1c2c(c(=S)n(-c3ccccc3)c1N)CCCC2 the results were KCNQ2 inh inactive and KCNQ2 inh baseline 0.64.
O=c1c(/C=N/O)c(Nc2ccccc2)nc2ccccn12 was read as KCNQ2 inh inactive and KCNQ2 inh baseline 1.6.
Screening Cc1ccc(S(=O)(=O)N(CC(=O)NCCC2=CCCCC2)Cc2ccccc2F)cc1 returned KCNQ2 inh -7* and KCNQ2 inh baseline -1.62*.
COC(CNC(=O)c1cccnc1)OC was read as KCNQ2 inh inactive and KCNQ2 inh baseline 0.39.
CCOC(=O)Cc1csc(NC(=O)c2ccc(OC)c(OC)c2)n1 was read as KCNQ2 inh inactive and KCNQ2 inh baseline 0.47.
O=S(=O)(Nc1cccc(Cl)c1)c1ccc2oc(=S)[nH]c2c1 was read as KCNQ2 inh inactive and KCNQ2 inh baseline -2.52.
For COc1cc2[nH]c(=S)n(CCN3CCCCC3C)c(=O)c2cc1OC (configuration not stated) the results were KCNQ2 inh inactive and KCNQ2 inh baseline -0.97.
`O=C(NCc1ccccc1)C12CC3CC(CC(Br)(C3)C1)C2` gave KCNQ2 inh inactive and KCNQ2 inh baseline 1.
Screening COc1ccc(C2c3[nH]c4ccccc4c3CCN2C(=O)c2cn3ccccc3n2)c(F)c1 (configuration not stated) returned KCNQ2 inh inactive and KCNQ2 inh baseline -1.11.
Screening O=C(CCN(CCO)Cc1ccccc1)Nc1ccc(Br)cc1 returned KCNQ2 inh inactive and KCNQ2 inh baseline 0.32.
Screening CC(=O)C1=C(C)NC(SCC(=O)Nc2nc3ccccc3s2)=C(C#N)C1c1ccc(Cl)cc1 (configuration not stated) returned KCNQ2 inh inactive and KCNQ2 inh baseline 1.63.
O=C(COC(=O)CCSc1ccc(Cl)cc1)Nc1ccc(F)cc1 was read as KCNQ2 inh inactive and KCNQ2 inh baseline -0.09.
For COc1ccc(CCNC(=O)C2CCN(S(=O)(=O)N3CCCCC3)CC2)cc1OC the results were KCNQ2 inh inactive and KCNQ2 inh baseline -2.41.

Among those listed so far, these contain two or more sulfur atoms.
Screening C=CCN1C(=O)/C(=C/c2ccc(O)cc2)S/C1=N/c1nccs1 returned KCNQ2 inh inactive and KCNQ2 inh baseline -2.17.
CCOC(=O)CSc1nc(-c2ccccc2)ns1 was read as KCNQ2 inh inactive and KCNQ2 inh baseline -1.89.
`COc1cc2c(cc1NC(=O)CSc1nc3cc(Cl)ccc3s1)oc1ccccc12` gave KCNQ2 inh inactive and KCNQ2 inh baseline 0.02.
`CSc1nc2ccc(S(=O)(=O)N3CCOCC3)cc2s1` gave KCNQ2 inh inactive and KCNQ2 inh baseline 0.61.
For O=C(O)CSc1cc(NS(=O)(=O)c2ccc(Cl)cc2)c2ccccc2c1O the results were KCNQ2 inh inactive and KCNQ2 inh baseline 0.1.
NS(=O)(=O)c1ccc(CCNC(=O)c2ccc(NC3=NC4CS(=O)(=O)CC4S3)cc2)cc1 (configuration not stated) was read as KCNQ2 inh inactive and KCNQ2 inh baseline 0.59.
O=S(=O)(Nc1cccc(Cl)c1)c1ccc2oc(=S)[nH]c2c1 was read as KCNQ2 inh inactive and KCNQ2 inh baseline -2.52.
Screening CC(=O)C1=C(C)NC(SCC(=O)Nc2nc3ccccc3s2)=C(C#N)C1c1ccc(Cl)cc1 (configuration not stated) returned KCNQ2 inh inactive and KCNQ2 inh baseline 1.63.

Assay outcomes (PubChem)
